ALR H2O2 inh – inhibitors of human ALR sulfhydryl oxidase, primary screen, biochemical, H2O2 detection, HRP-luminol luminescence, single point | AID 485317, 2010 | purified ALR, DTT oxidation | inhibition, % (concentration not given with the values) | 290,000 tested, 3.8% active;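 active = mean and each replicate at 75% or more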;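 note: stock transfer was 7.5 nL into about 7.5 µL; 0% = neutral wells and 100% = wells with inactivated enzyme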
Target sequence (P55789 whole entry, looked up): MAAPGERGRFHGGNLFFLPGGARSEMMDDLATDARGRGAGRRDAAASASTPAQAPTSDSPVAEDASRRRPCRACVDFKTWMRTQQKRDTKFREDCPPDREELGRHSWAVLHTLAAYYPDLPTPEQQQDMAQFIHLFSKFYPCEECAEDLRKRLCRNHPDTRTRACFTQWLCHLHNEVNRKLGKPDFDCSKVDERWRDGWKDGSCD
UCH37 inh – inhibitors of human UCH37 deubiquitinase, primary screen, biochemical, Ub-AMC cleavage, fluorescence; 330,000 tested, 0.33% active; Ubiquitin carboxyl-terminal hydrolase isozyme L5 (Homo sapiens), Q9Y5K5; purified proteasome/UCH37; inhibition, % (test concentration not listed); AID 588478, 2011;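 active = mean of two replicates above 20%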;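 note: 0% = compound-free wells with enzyme and 100% = wells lacking proteasome; stock transfer was 100 nL into about 20 µL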
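Signal – fluorescence, ex 355 nm, em 460 nm · System – Proteasome-bound UCH37 · Input – 0.15 nM proteasome as dispensed · Timing – 30 min preincubation with enzyme, 25 min cleavage at room temperature · Read-out basis – percent inhibition of cleavage signal versus uninhibited and no-proteasome wells · Medium – Tris-HCl pH 7.4 with ATP-MgCl2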
Ecoli growth – E. coli growth inhibition, primary screen, OD600 | 330,000 tested, 0.21% active | Escherichia coli growth, 23 h; stronger effect = lower value | OD600 absorbance (concentration not given with the values);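 active = OD600 absorbance below the run mean of sample wells minus 3.6 SD, in any replicate, cut at about 0.56 in these data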;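 note: stock transfer was 300 nL into about 60 µL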
rRNA inh HTS – reduced GFP signal of wild-type E. coli, primary screen, bacterial rRNA inhibitor project, GFP/RFP fluorescence, OD600, single point | E. coli WT GFP vs humanized-ribosome RFP mutants, 24 h; stronger effect = lower value; DMSO median 0, no signal -100 | GFP signal change (wild-type ribosome), % (test concentration not listed) | 350,000 tested, 1.6% active;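 active = significant combined selectivity score with lowered wild-type GFP, culture density cut under 30%, mutant RFP and density less affected; inactive = any of these conditions unmet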; note: one replicate is shown; some compounds called inactive have numbers as strong as hits
HNF4A DNA FP – change in binding of human HNF4A to DNA, primary screen, biochemical, fluorescence polarization, FITC-DNA; activity change, % at 10 µM; 360,000 tested, 0.3% active; 1 h; in the data active = activity change above about 30%, passing the limit was not always enough;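 note: controls were the assay level and a saturating level of protein; the project sought stronger binding though the title names inhibitors; some compounds called inactive have numbers as strong as hits; positive values seem to mean higher polarization but the record does not say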
Target sequence (P41235 whole entry, looked up): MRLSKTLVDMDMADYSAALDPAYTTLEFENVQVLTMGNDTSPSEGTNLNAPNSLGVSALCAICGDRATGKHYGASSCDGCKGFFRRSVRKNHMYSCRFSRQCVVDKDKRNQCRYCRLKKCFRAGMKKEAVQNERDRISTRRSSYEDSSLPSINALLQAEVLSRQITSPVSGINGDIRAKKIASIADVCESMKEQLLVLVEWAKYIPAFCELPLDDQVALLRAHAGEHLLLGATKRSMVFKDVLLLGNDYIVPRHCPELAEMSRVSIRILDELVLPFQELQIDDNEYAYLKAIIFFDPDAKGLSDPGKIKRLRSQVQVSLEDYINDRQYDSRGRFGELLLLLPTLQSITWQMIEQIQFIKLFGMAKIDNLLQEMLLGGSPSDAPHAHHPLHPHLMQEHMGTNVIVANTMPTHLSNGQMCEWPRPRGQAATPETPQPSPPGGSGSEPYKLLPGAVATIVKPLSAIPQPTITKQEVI
Beta2AR agonist – beta2AR agonists driving receptor internalization, primary screen, cell-based, FAP fluorogen, flow cytometry; Beta-2 adrenergic receptor (Homo sapiens), P07550; Am2.2-beta2AR cells; reference of the scale not given here; response, % (test concentration not listed); 340,000 tested, 0.43% active; AID 504454, 2011;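 active = response above a set limit, near 3 SD of response in nonfluorescent compounds, cut at about 42% in these data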;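 note: stock transfer was 100 nL into about 11 µL; a reference agonist was the positive control; negative values mostly stem from fluorescent compounds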
FGF22 binding – binders of human FGF22 protein, primary screen, FGF22 synaptogenesis inhibitor project, biophysical, thermal shift, single point; Fibroblast growth factor 22 (Homo sapiens), Q9HCT0; recombinant FGF22 thermal shift, SYPRO orange fluorescence; percent of sucrose octasulfate shift, DMSO zero; calls only at 9.99 µM; 340,000 tested, 1.5% active; AID 651658, 2012;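 active = melting point raised past a set limit in the mean and every replicate; three in four hits are not shown here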
Target sequence (Q9HCT0 whole entry, looked up): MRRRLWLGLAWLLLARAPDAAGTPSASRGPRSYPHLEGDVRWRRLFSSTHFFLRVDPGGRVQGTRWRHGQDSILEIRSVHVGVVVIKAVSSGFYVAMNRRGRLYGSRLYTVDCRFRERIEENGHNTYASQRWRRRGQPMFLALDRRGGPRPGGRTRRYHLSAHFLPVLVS
rRNA inh HTS OD600 – recorded beside rRNA inh HTS, whose call it bears; OD600 change, %; measured here: OD600 growth;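 optical density of the mix in the first replicate; 0 = DMSO median and -100 = no signal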
rRNA inh HTS RFP – second read-out of rRNA inh HTS, no call of its own (marks repeat the call); RFP signal change, %; measured here: RFP humanized mutant strains;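 first replicate; 0 = DMSO median and -100 = no signal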
* hit, by the source's call; i = inactive; / = not tested or not shown. Only part of the results is shown. The share of hits here may be higher or lower than overall.

SMILES	ALR H2O2 inh	UCH37 inh	Ecoli growth	rRNA inh HTS	rRNA inh HTS OD600	rRNA inh HTS RFP	HNF4A DNA FP	Beta2AR agonist	FGF22 binding
COc1ccc(CCNC(=O)c2c(C)noc2C)cc1	-9	2.2	0.71	4	1	5.8	-3.2	-1	i
CCOc1ccccc1NC(=O)/C(C#N)=C/c1c(C)nn(-c2ccc(F)cc2)c1Cl	-11	1.5	0.67	-11	-1	-2.3	2.5	4	i
c1ccc2sc(N3CCN(Cc4nnnn4CC4CCCO4)CC3)nc2c1 (stereo not drawn)	-1	-2.8	0.7	/	/	/	1.1	-3	/
O=C(Cn1cc(C(F)(F)F)ccc1=O)Nc1ccccc1	/	2.5	0.68	19	12	0.9	0.4	-11	i
COC(=O)N1CC(c2ccccc2)CC1=O (stereo not drawn)	-6	6.5	0.72	/	/	/	0.0	2	/
CC(CNC(=O)CN1C(=O)NC2(CCOc3ccccc32)C1=O)c1ccccc1 (stereo not drawn)	1	-3.0	0.7	-2	1	-0.2	0.3	-3	i
COC(=O)c1ccccc1NS(=O)(=O)c1ccc2[nH]c(=O)[nH]c2c1	-4	0.5	0.72	/	/	/	2.3	-1	/
O=C1C(=Cc2ccccc2O)SC(=S)N1CCCN1CCOCC1	/	/	/	8	6	4.6	5.3	/	i
Cc1ccc(C)c(C(=O)COC(=O)c2cc([N+](=O)[O-])ccc2N2CCOCC2)c1	/	2.9	0.68	-4	0	-0.9	-2.2	6	/
O=C(NC1CCN(C(=O)Nc2ccc(F)cc2)CC1)c1ccc(F)cc1	/	8.1	0.68	0	6	-1.7	2.0	-20	i
NC(=O)C1(N2CCCCC2)CCN(C(=O)NC23CC4CC(CC(C4)C2)C3)CC1	-18	1.9	0.67	/	/	/	-0.3	9	/
CCN(CC)S(=O)(=O)c1cc(C(=O)Nc2cccnc2)ccc1Cl	75	5.5	0.72	/	/	/	4.5	-15	/
COc1ccc(C2=NOC(C(=O)NCCCn3ccnc3)C2)cc1 (stereo not drawn)	/	0.1	0.63	/	/	/	-0.3	-6	/
CCOC(=O)CCSCC(=O)Nc1cc(C)on1	-9	0.0	0.61	/	/	/	6.2	-6	/
COc1ccc(C(=O)N2CCC(C(=O)NC3CC3)CC2)cc1	/	1.1	0.66	8	11	0.8	2.4	8	/
O=C(CCN1C(=O)COc2ccccc21)NCCCN1CCN(c2ccccc2F)CC1	6	-3.3	0.68	/	/	/	0.8	-5	/
Cc1nn(Cc2ccccc2)c(C)c1NC(=O)c1cccs1	-5	3.8	0.63	-42	-59	-7.8	3.1	-8	i
CC(NC(=O)c1ccc(Cl)c(Cl)c1)c1ccc(-c2ccccc2)cc1 (stereo not drawn)	-3	1.6	0.73	17	15	3.4	2.7	-5	i
COc1ccc2cc(-c3ccccc3F)ncc2c1	-17	0.9	0.63	-25	-7	-21	-1.9	0	i
CC(=O)c1cccc(NC(=O)C(C)N2CCc3ccccc3C2)c1 (stereo not drawn)	5	3.2	0.64	4	1	-2.2	5.2	11	i
O=C(NC1CCCCC1)c1ccc(-c2ccccc2[N+](=O)[O-])o1	-25	3.2	0.67	-14	-22	0.2	-3.2	7	i
COc1ccccc1C1/C(=C(\O)c2ccc3c(c2)OCCO3)C(=O)C(=O)N1Cc1cccnc1 (stereo not drawn)	1	9.0	0.67	-6	-3	-2.8	-5.5	7	i
CCOc1ccc(NC(=O)CC(NC(C)=O)c2ccccc2)cc1S(=O)(=O)N1CCCC1 (stereo not drawn)	2	1.7	0.64	5	2	-1.2	-1.0	-7	i
Cc1cc(C)n2nc(SCC(=O)NC3CCCCC3C)nc2n1 (stereo not drawn)	/	0.8	0.69	2	8	-3.2	3.2	-2	i
CNc1nc2c(c(=O)[nH]c(=O)n2C)n1CCCc1ccccc1	8	2.5	0.69	11	17	4.9	-3.4	-8	i
COc1ccc(C(=O)N2CCOC23CCN(c2ncccn2)CC3)cc1	8	-5.9	0.66	14	13	1.0	2.2	-1	i
Cc1cc2c(cc1S(=O)(=O)NCc1ccccc1)NC(=O)CO2	/	4.7	0.69	-3	0	-1.9	2.7	4	i
O=C1C(=O)N(CCN2CCOCC2)C(c2ccccn2)/C1=C(/O)c1ccccc1 (stereo not drawn)	-23	13	0.72	/	/	/	5.3	4	/
c1ccc2c(c1)nc1n2CCS1	-2	3.5	0.72	/	/	/	-2.3	-14	/
CC(C)N(C(=O)c1ccc(-c2ccccc2F)cc1)C(C)C	-7	-0.7	0.65	-29	-47	-2.9	1.9	-3	i

Copied from the list.
Result of `COc1ccccc1C1/C(=C(\O)c2ccc3c(c2)OCCO3)C(=O)C(=O)N1Cc1cccnc1` (stereo not drawn) under ALR H2O2 inh: 1
Result of `O=C1C(=O)N(CCN2CCOCC2)C(c2ccccn2)/C1=C(/O)c1ccccc1` (stereo not drawn) under Ecoli growth: 0.72

Further records follow:
SMILES	ALR H2O2 inh	UCH37 inh	Ecoli growth	rRNA inh HTS	rRNA inh HTS OD600	rRNA inh HTS RFP	HNF4A DNA FP	Beta2AR agonist	FGF22 binding
Cc1cccc(-n2[nH]c3c4c(ccc3c2=O)C(=O)c2ccccc2C4=O)c1	20	6.7	0.72	/	/	/	-3.2	-9	/
NC(=O)C1(N2CCCCC2)CCN(S(=O)(=O)c2ccccc2)CC1	/	0.5	0.69	6	6	0.1	0.9	-1	i
CN(C)c1ccc(NC(=O)CCCCCn2nnc3ccccc3c2=O)cc1	99*	-0.8	0.69	10	9	8.8	2.7	-3	i
CCCn1c(=O)c2ccccc2n2c(SCC(=O)c3ccccc3)nnc12	2	-4.9	0.7	12	13	0.6	-0.4	-4	i
Cc1c(C(=O)NCc2cccnc2)sc2ncn(CC(=O)N3CCCCC3C)c(=O)c12 (stereo not drawn)	/	0.0	0.71	/	/	/	-3.8	-15	/
CC1CCCC(C)N1C(=O)COC(=O)c1cc(F)c(F)cc1Cl (stereo not drawn)	0	2.8	0.68	-7	-5	0.2	-1.9	-1	i
CCn1nc(C(=O)Nc2ccc(Cl)c(S(=O)(=O)N3CCOCC3)c2)c2ccccc2c1=O	/	0.8	0.63	-16	-13	1.4	-3.2	5	i
Cc1ccc(S(=O)(=O)/N=C(\N)c2ccc(Cl)cc2)cc1	0	0.7	0.67	7	1	3.0	-1.1	-9	i
Cc1cc(C)c2sc(N(CCN(C)C)C(=O)c3ccc4ccccc4c3)nc2c1	-2	3.2	0.65	-8	-14	1.9	0.4	5	i
Cc1cccc(C)c1NC(=O)C1CCCN1C(=O)Nc1cccc(F)c1 (stereo not drawn)	9	-0.4	0.68	9	9	-2.1	3.4	5	i

Two records drawn at random from the list so far:
SMILES	ALR H2O2 inh	UCH37 inh	Ecoli growth	rRNA inh HTS	rRNA inh HTS OD600	rRNA inh HTS RFP	HNF4A DNA FP	Beta2AR agonist	FGF22 binding
Cc1cc(C)c2sc(N(CCN(C)C)C(=O)c3ccc4ccccc4c3)nc2c1	-2	3.2	0.65	-8	-14	1.9	0.4	5	i
NC(=O)C1(N2CCCCC2)CCN(S(=O)(=O)c2ccccc2)CC1	/	0.5	0.69	6	6	0.1	0.9	-1	i

Carrying on:
SMILES	ALR H2O2 inh	UCH37 inh	Ecoli growth	rRNA inh HTS	rRNA inh HTS OD600	rRNA inh HTS RFP	HNF4A DNA FP	Beta2AR agonist	FGF22 binding
COc1cccc(NC(=O)CN2C(=O)C(c3ccc(C)cc3)=NC23CCCCCC3)c1	-7	2.0	0.69	/	/	/	5.2	-3	/
CC(=NNC(=S)N(Cc1ccccn1)Cc1ccccn1)c1cnccn1	/	/	/	-16*	9.0*	5.9*	4.3	-23	i
Nc1cc(C(Cl)=C(Cl)Cl)c(S(N)(=O)=O)cc1S(N)(=O)=O	1	5.0	0.66	-3	5	-4.4	-2.5	-6	i
C[C@@H](NC(=O)CN1C(=O)c2ccccc2S1(=O)=O)c1ccccc1	1	-0.2	0.68	23	10	1.9	2.1	8	i
CCC1(CC)C(=O)N=C2c3ccccc3C(=O)N21	5	6.7	0.79	/	/	/	1.7	-2	/
O=C1CS/C(=N/N=C/c2ccccc2OS(=O)(=O)c2ccccc2)N1	10	/	/	/	/	/	0.1	0	/
Cc1cccc(S(=O)(=O)NC(=O)C2(C)CCN2C(=O)c2cccc(F)c2)c1 (stereo not drawn)	/	/	/	10	17	-3.1	-5.1	/	i
COc1cc(CCC(=O)OCC(=O)Nc2ncc(Cl)cc2Cl)cc(OC)c1OC	-6	0.7	0.77	/	/	/	0.7	2	/
CC1Cc2ccccc2N1C(=O)CSc1nnc2c(n1)[nH]c1ccccc12 (stereo not drawn)	-27	-1.8	0.68	/	/	/	4.2	3	/
O=C(c1ccco1)N1CCN(c2ncnc3scc(-c4cccs4)c23)CC1	0	3.5	0.7	-48	-59	3.8	-3.1	-5	i
COc1ccc(CNC(=O)c2c(-c3c(F)cccc3Cl)noc2C)cc1	-4	2.1	0.67	11	18	2.6	1.0	-8	i
COc1cccc(/C(O)=C2/C(=O)C(=O)N(c3cc(C)on3)C2c2cccs2)c1 (stereo not drawn)	14	14	0.73	/	/	/	5.1	5	/
COc1cc(/C=N\NC(=O)C2COc3ccccc3O2)cc(OC)c1O (stereo not drawn)	/	/	/	-16	-16	-11	-0.8	-7	i
CCC(C)NC(=O)c1ccccc1SC (stereo not drawn)	-11	2.1	0.69	4	4	3.4	-2.6	1	i
CC(C)C(=O)NC(NCC1CCCO1)C(Cl)(Cl)Cl (stereo not drawn)	-2	-1.5	0.67	/	/	/	3.8	10	/
O=c1[nH][nH]cc1C=Nc1ccccc1Cl	39	8.2	0.75	12	17	2.4	1.0	-1	i
CCOC(=O)C1=CCN(S(=O)(=O)c2ccc(F)cc2)C1c1ccc(F)cc1 (stereo not drawn)	/	/	/	-3	-17	-4.7	-4.9	/	i
Nn1cc(-c2ccccc2)nc1SCC(=O)NCC(F)(F)F	-8	5.4	0.65	-2	-1	-3.4	1.6	-7	i
COc1ccccc1NS(=O)(=O)c1ccc(C(=O)NCC(c2ccco2)N2CCCCC2)cc1 (stereo not drawn)	/	5.4	0.66	8	5	1.7	-3.8	6	i
CC(=O)n1ccnc1	-7	-1.0	/	1	10	1.9	6.8	-7	i
Cc1cc(C(=O)OCC(=O)NC2CCC(C)CC2)c(C)o1 (stereo not drawn)	1	3.9	0.67	7	7	-0.1	0.7	-3	i
CN(C)S(=O)(=O)c1ccc(N2CCCC2)c(C(=O)Nc2nc3ccc(F)cc3s2)c1	-17	0.1	0.68	-3	-3	-1.4	7.0	5	i
CN(c1ccccc1)S(=O)(=O)c1ccc(C(=O)Nc2ncccc2O)cc1	-33	3.3	0.63	0	1	-1.4	0.1	5	i
CC(CCc1ccccc1)NC(=O)CN1C(=O)NC2(CCCCC2C)C1=O (stereo not drawn)	-4	0.8	0.68	0	-1	-1.5	-3.0	-10	i
C/C(CC(=O)Nc1cc(C)ccn1)=N\NC(=O)c1ccc(C)cc1	8	/	/	27	11	1.2	2.0	10	i
Cc1noc(C)c1S(=O)(=O)Nc1ccc(C(=O)N2CCN(c3cccc(Cl)c3)CC2)cc1	-7	-0.4	0.68	/	/	/	1.5	3	/
CCOC(=O)C1(Cc2ccccc2)CCCN(Cc2ccc(OCC)c(CO)c2)C1 (stereo not drawn)	1	0.4	0.66	0	-9	2.3	5.3	-9	i
